Anaer choline gr = choline-fed anaerobic bacterial growth inhibition. Gram-negative bacterium anaerobic choline minimal medium, absorbance growth; hits give low values; many inactives read as strong as hits in the columns shown. calls only. hit rate 0.2% among 55,000. AID 1963822;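 active means growth z-score on choline under -2 at 7 or 20 h with little or no fall on glycerol, limits in tiers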;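 further: stock transfer was 300 nL into about 50 µL; the organism is E. coli; final concentration not given here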
Anaer choline gr early = second read-out of Anaer choline gr, no call of its own (marks repeat the call); z-score; measured here: choline growth z-score, timepoint 1;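 score of optical density at 7 h as mean of two plates; lower means less growth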
* hit, by the source's call; i = inactive; & = joins results of further samples.

SMILES | Anaer choline gr | Anaer choline gr early
Cn1c(=O)c(=O)n(CC(=O)O)c2ccccc21 | i | -1.3
Cc1nn(-c2ccc3nnc(C)n3n2)c2c1C(c1ccc(F)cc1)CC(=O)N2 (stereo not given) | i | -1.4
Nc1ccc(-c2ccc3ccccc3n2)cc1 | i | -0.77
CC(C)(C)C(=O)N1CCC(C)(C(=O)NCc2ccc(F)cc2F)CC1 | i | -1
Cc1sc2ncc(C(=O)N3CCN(c4ccccc4F)CC3)c(=O)n2c1C | i | -0.48
COc1ccc(S(=O)(=O)NCCc2sc3nc(-c4ccc(C)cc4)nn3c2C)cc1F | i | 1.1
CCc1ccc2c(c1)[C@H]1OCC[C@H]1C(c1cccc(O)c1)N2 (stereo not given in full) | i | -0.34
CCC1Cn2c(C(=O)NC3CCCCC3)cc3c(Cl)ccc(c32)O1 (stereo not given) | i | -0.56
CCCn1c(=O)c2ccc(C(=O)NC(C)C)cc2n2c(=O)n(CC(=O)NC(C)(C)C)nc12 | i | -0.31
COC(=O)c1c(NC(=O)c2nc(SCc3ccccc3F)ncc2Cl)sc2c1CCC2 | i | -0.1

Taken from above.
CCCn1c(=O)c2ccc(C(=O)NC(C)C)cc2n2c(=O)n(CC(=O)NC(C)(C)C)nc12 in Anaer choline gr early → -0.31
COC(=O)c1c(NC(=O)c2nc(SCc3ccccc3F)ncc2Cl)sc2c1CCC2 in Anaer choline gr early → -0.1

Next part:
SMILES | Anaer choline gr | Anaer choline gr early
CCOC(=O)C1CCN(C(=O)c2cccc(C3CCCN(C(=O)c4ccc(OC)cc4)C3)c2)CC1 (stereo not given) | i | -2.1
Cc1ccc(S(=O)(=O)N2CCCC2c2ccc(Cl)cc2)cc1 (stereo not given) | i | 1.2
COc1ccc2[nH]cc(CCNC(C)=O)c2c1 | i | 0.63&0&0.14&0.45
Cc1noc(C)c1C1CCCN1C(=O)Nc1ccccc1 (stereo not given) | i | 0.28
COc1cccc(Cn2c(C(=O)N3CCC(C(=O)NCCN4CCOCC4)CC3)cc3ccsc32)c1 | i | -0.23
O=c1ccc(-c2ccc(Cl)c(S(=O)(=O)N(Cc3ccccc3)Cc3ccccc3)c2)n[nH]1 | i | 0.69
Cc1ccccc1NS(=O)(=O)c1c(C(=O)N2CCCC2)c(C)n(C)c1C | i | 0.75
Cc1ccc(-c2noc(-c3cn(Cc4ccc(NS(=O)(=O)c5ccc(C)c(C)c5)cc4)cn3)n2)cc1 | i | 0.5
COc1cc(C2CC(=O)C3=C(C2)Nc2onc(C)c2C3c2ccc(O)c(OC)c2)ccc1O (stereo not given) | i | 0.55
COc1cccc(CSc2nc3ccncc3n2Cc2ccc(C(=O)NCc3ccccn3)cc2)c1 | i | 0.97

Some of the entries so far, with tabs:
SMILES	Anaer choline gr	Anaer choline gr early
COc1cccc(Cn2c(C(=O)N3CCC(C(=O)NCCN4CCOCC4)CC3)cc3ccsc32)c1	i	-0.23
COc1cccc(CSc2nc3ccncc3n2Cc2ccc(C(=O)NCc3ccccn3)cc2)c1	i	0.97
O=c1ccc(-c2ccc(Cl)c(S(=O)(=O)N(Cc3ccccc3)Cc3ccccc3)c2)n[nH]1	i	0.69
COc1cc(C2CC(=O)C3=C(C2)Nc2onc(C)c2C3c2ccc(O)c(OC)c2)ccc1O (stereo not given)	i	0.55

More structures follow:
SMILES | Anaer choline gr | Anaer choline gr early
O=C(CC1CCN(C(=O)NC2CCCCC2)CC1)NC1CC1 | i | -1.6
COc1ccc(CN2CCN(Cc3c[nH]c4ccccc34)CC2)cc1 | i | -1.8
CN1CCN(C(=O)C2CCCN(c3ncc(-c4cccc(F)c4)cn3)C2)CC1 (stereo not given) | i | -0.22
Cc1ccc(CNC(=O)C2CCCN(S(=O)(=O)Cc3ccc(F)cc3)C2)cc1 (stereo not given) | i | 3.1
C=CCn1c(=O)c2sc(N(CC)CC)nc2n(CC(=O)Nc2cc(F)cc(F)c2)c1=O | i | -1.5
COc1cccc(Nc2ncc3c(n2)CCN(Cc2ccc(OC)c(OC)c2)C3)c1 | i | -0.63
CCc1onc(C)c1C1CCCN1C(=O)c1cc(C)on1 (stereo not given) | i | -0.11
Cc1ccc(Cl)cc1NC(=O)CN1CCCN(Cc2ccccc2Cl)S1(=O)=O | i | -1.2
CC1(C(=O)NC2CCCCC2)Cn2c(cc3occc32)C(=O)N1C1CCCC1 (stereo not given) | i | 0.86
COc1ccc(-c2nc3c(s2)CN(S(C)(=O)=O)CC3)cc1 | i | 0.33
COc1ccc(CCC(=O)NCCc2sc3nc(-c4ccc(OC)cc4)nn3c2C)cc1 | i | 0.09
Cc1cc(C)n(CC(=O)NCCc2ccccc2)c(=O)c1S(=O)(=O)c1ccc(Br)cc1 | i | -0.92
Cc1noc(-c2cccnc2NC(C)C)n1 | i | -1.4
COc1ccc(-c2nc(N3CCC(C)CC3)nc3nn4c(C)cc(C)nc4c23)cc1 | i | -0.01
O=C(Nc1nccs1)C1=Cc2cc(Br)ccc2OC=C1 | i | -2.2
Cc1ccccc1CNC(=O)CN1C(=O)C(C)(C)c2ccccc21 | i | 0.17
O=S(=O)(Nc1nc2n(n1)C(c1ccc(F)cc1)C=C(c1ccccc1)N2)c1ccc(Cl)cc1 (stereo not given) | i | 0.76
NC(C(=O)O)c1cc(O)cc(O)c1 (stereo not given) | i | 0.67
Cn1cnc2cc(-c3noc(-c4ccccc4Br)n3)ccc21 | i | -0.16
Cc1ccc(N(C(=O)c2ccc(S(=O)(=O)N3CCOCC3)cc2)C2C=CS(=O)(=O)C2)cc1 (stereo not given) | i | 0.22
CSc1cccc(N2C=NS(=O)(=O)c3cccnc32)c1 | i | 0.81
COc1cc(Nc2ncc3c(n2)CCN(S(=O)(=O)c2ccc(C)cc2)C3)cc(OC)c1 | i | 1.2
Cc1c(-c2nc(-c3ccncc3)no2)oc2ccc(S(=O)(=O)N3CCOCC3)cc12 | i | -2.3
Cc1nn(-c2ccc(Cl)cc2)c2sc(C(=O)N(C)c3ccc(F)cc3)cc12 | i | -0.38
OCC1NCC(O)C(O)C1O (stereo not given) | i | 1
CCC(=O)Nc1ccc(S(=O)(=O)N2CSC[C@@H]2C(=O)NCCc2csc(C)n2)cc1 | i | 0.28
Cc1nn(-c2ccccc2)c2ccn(CC(=O)NCCN3CCOCC3)c(=O)c12 | i | -0.66
CCOC(=O)C1=CNc2ccccc2S1 | i | -0.1
O=C(Nc1ccc(Cl)cc1)N1CCSc2ncccc21 | i | -0.1
CN(C)c1ccc(/C=C2\C(=O)Nc3ccccc32)cc1 | i | 0.37&0.76&0.64
Fc1ccc(-c2csc(Nc3ccc(Br)cn3)n2)cc1 | i | 0.38
CCC(=O)Nc1cccc(-c2noc(C3CCN(C(=O)CNC(=O)c4ccccc4)CC3)n2)c1 | i | -0.96
O=C1CCCc2c1cnc1[nH]n(-c3ccccc3)c(=O)c21 | i | -0.34
CC(=O)Cc1nsc(NC(=O)C2=Cc3cc(Br)ccc3OC=C2)n1 | i | -1.8
CC1CCc2c(sc3nc(CCC(=O)N4CCC(C(N)=O)CC4)[nH]c(=O)c23)C1 (stereo not given) | i | 0.03
CC1(C)C(=O)N(CC(=O)NCc2ccc(F)cc2)c2ccc(S(=O)(=O)N3CCCC3)cc21 | i | -0.81
O=C(Cn1c(=O)n2nc(-c3cccc(F)c3)nc2c2ccccc21)c1cccc(Cl)c1 | i | 0.29
COc1ccc(CCNC(=O)CN(c2ccccc2)S(=O)(=O)N(C)C)cc1OC | i | -0.85
CC(NC(=O)CCC(=O)N1CCc2c(c(C(=O)Nc3cccc(F)c3)nn2C)C1)c1ccccc1 (stereo not given) | i | -0.39
O=C(COc1ccccc1)NCCc1csc2nc(-c3cccc(F)c3)nn12 | i | -0.58
Cc1cc(C)c2c(c1)[C@H]1OCCC[C@H]1C(c1ccc(Cl)cc1)N2 (stereo not given in full) | i | 1
COc1ccc(-c2cc3ncc(C(=O)c4ccccc4O)cn3n2)cc1 | i | 0.09
CC(C)N(CCCNC(=O)Nc1cn(C)c(=O)c2ccccc12)Cc1ccccc1 | i | 0.48
Cc1nc(Nc2ccc(NC(=O)Nc3ccc(Cl)cc3)cc2)cc(N2CCCC2)n1 | i | -0.88
COC(=O)CC1=CC(=O)N(CC(=O)Nc2cc(Cl)c(OC)cc2OC)c2ccccc2N1 | i | 0.67
O=C(CCc1nc(CSc2nc3ccccc3s2)no1)Nc1ccccc1F | i | -0.04
Cc1nnc(N2CCCC(C(=O)NCc3ccccc3F)C2)c2nn(-c3ccc(Cl)cc3)c(C)c12 (stereo not given) | i | -0.39
COc1ccc(S(=O)(=O)Nc2cc3c(cc2N2CCCCC2)n(C)c(=O)c(=O)n3C)cc1OC | i | -0.4
O=C(c1ccsc1)N1CCc2nc[nH]c2C1 | i | -0.39
CN(CC(=O)NC1CC1)S(=O)(=O)c1cc2c(cc1Cl)NC(=O)CO2 | i | -0.55

Fetched one by one from the entries so far, four records:
SMILES | Anaer choline gr | Anaer choline gr early
COC(=O)CC1=CC(=O)N(CC(=O)Nc2cc(Cl)c(OC)cc2OC)c2ccccc2N1 | i | 0.67
CN(CC(=O)NC1CC1)S(=O)(=O)c1cc2c(cc1Cl)NC(=O)CO2 | i | -0.55
COc1ccc(S(=O)(=O)Nc2cc3c(cc2N2CCCCC2)n(C)c(=O)c(=O)n3C)cc1OC | i | -0.4
Cc1nc(Nc2ccc(NC(=O)Nc3ccc(Cl)cc3)cc2)cc(N2CCCC2)n1 | i | -0.88

Remaining list, next part:
SMILES | Anaer choline gr | Anaer choline gr early
O=C(NCC1CCCO1)c1cc2n(n1)CCCN(Cc1ccc(F)cc1)C2=O (stereo not given) | i | -0.14
O=C(Nc1ccc2c(c1)OCO2)c1cccc(-c2cc(N3CCCC3)ncn2)c1 | i | -0.58
Cc1nn2c(S(=O)(=O)N3CCCCC3)c(C)nc2s1 | i | 0.01
Cc1sc(C)c(S(=O)(=O)N2CCN(c3ccccc3)CC2)c1-c1cc(C(F)(F)F)on1 | i | -0.02
CCNC(=O)N1CCCC(c2cccc(C(=O)NCCN3CCOCC3)c2)C1 (stereo not given) | i | -0.17
COc1ccc(CNC(=O)C2(C)CCCN(S(=O)(=O)c3cnn(C(F)F)c3C)C2)cc1 (stereo not given) | i | -0.71
O=C(Nc1ccc(F)cc1F)c1nnc(C2CCN(S(=O)(=O)c3cnc[nH]3)CC2)s1 | i | -1.3
Cc1ccc(C(CC(=O)Nc2nc(C)cs2)N2Cc3ccccc3C2=O)cc1 (stereo not given) | i | 0.89
Cc1cc(C)cc(NC(=O)NCc2ccnc(N3CCCCC3)c2)c1 | i | 0.58
CCN(CC)S(=O)(=O)c1ccc(C(=O)N(c2ccc(C)c(Cl)c2)C2C=CS(=O)(=O)C2)cc1 (stereo not given) | i | -0.83
O=C(Cc1csc2nc(-c3ccccc3)cn12)NCc1ccc(F)cc1 | i | 1.4
CCn1c(N2CCCC(C(=O)Nc3ccc(OC)c(OC)c3)C2)cc(=O)n(C)c1=O (stereo not given) | i | 0.13
CCc1cc2c(cc3n2CC(C)(C(=O)NC2CCCCC2)N(CCCN2CCCC2)C3=O)s1 (stereo not given) | i | 0.45
Cc1ccsc1C(=O)N1CCN(C(=O)c2cc(-c3ccccn3)n[nH]2)CC1 | i | 0.85
CN(C(=O)CSc1nnc2c3ccccc3nc(-c3ccccc3)n12)c1ccc(F)cc1 | i | 0.8
O=S(=O)(c1ccc(Cl)cc1)N1CCCC(c2nc(-c3ccccc3Br)no2)C1 (stereo not given) | i | 1.1
Cc1cc(SCC(=O)N2CCN(c3ccccc3)CC2)nc(-c2ccc(F)cc2)n1 | i | -1.8
COc1ccc(OCc2nnc3sc(-c4c[nH]c5ccccc45)nn23)cc1 | i | -0.95
Cc1c(-c2nc(-c3ccc(Cl)cc3)no2)sc2ncn(CC(=O)NC3CCCCC3)c(=O)c12 | i | -1.3
O=C(CCc1nc(-c2ccc(S(=O)(=O)N3CCOCC3)cc2)no1)NC1CCCC1 | i | 0.2
Cc1ccc(/C(O)=C2/C(=O)C(=O)N(CC(C)C)C2c2cccnc2)cc1 (stereo not given) | i | -0.24
Cc1ccc(C(=O)CSc2nn3c(=O)c(C)nnc3s2)cc1C | i | 1.1
Cc1nc(-c2ccccc2)ncc1C(=O)NCc1cccc(Cl)c1 | i | -0.65
COCCNS(=O)(=O)c1ccc2c(c1)N(Cc1noc(C)n1)C(=O)CO2 | i | 1.2
Cc1ccc(-c2nc(-c3cccc(NC(=O)Nc4ccccc4)c3)no2)cc1 | i | 1.3
COc1cc(C)c(C)cc1S(=O)(=O)N1CCc2cc3ccc(C)cc3nc21 | i | -0.02
COc1cc2c(=O)n(Cc3ccc(C(=O)NC4CCCC4)cc3)c(=O)n(Cc3ccccc3F)c2cc1OC | i | -0.77
O=C(c1csc(S(=O)(=O)NCc2cccnc2)c1)N1CCCC1 | i | -0.13
CCOC(=O)Cn1c(=O)c2c(OCC)c(C)cnc2n(C)c1=O | i | -1.6
Cc1nc(N2CCOCC2)cc(N2CCN(C(=O)C(C)(C)C)CC2)n1 | i | -0.49
COc1ccc(C(=O)N2CCc3ccc(CNC(=O)c4cccc(Cl)c4)cc32)cc1 | i | 0.11
O=C(NCCc1ccccc1)C1CCN(C(=O)N2CCOc3ccc(Cl)cc32)CC1 | i | -2
CC(=O)[C@H]1CCC2C3CC=C4C[C@@H](OS(=O)(=O)O)CC[C@]4(C)C3CC[C@@]21C (stereo not given in full) | i | 0.01
CC(C)N1CCN(S(=O)(=O)c2ccc(-c3nnc(C4CCC4)o3)o2)CC1 | i | -0.01
Cc1ccc(NC(=O)Nc2c(-n3cnnc3)nn(C)c2C)cc1 | i | 0.43
Cc1ccc(-c2c(NCc3ccc4c(c3)OCO4)c(=O)c2=O)cc1 | i | 0.44
NC(=O)C1CCCN(Cc2cccs2)C1 (stereo not given) | i | 0.42
COc1ccc(CCC(=O)NCCc2nc(-c3ccc(C)cc3)n[nH]2)cc1 | i | -0.72
O=C(Nc1ccccc1)c1cccc(N2CCCS2(=O)=O)c1 | i | 0.32

This is a subset; rates above refer to the full screens.
